# Sa growth 42C: S. aureus growth inhibition; S. aureus RN4220 growth, OD600, 20 h, 42 °C; stronger effect = lower value; relative growth, % (test concentration not listed); 0.53% of 170,000 active; AID 720641;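 active = growth at 42 °C up to 50% and 20 or more points under that at 30 °C, or under 10% at both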;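 note: 300 nL library stock went into each well; scaled to the means of positive and negative controls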
# HCMV NEC inh: disrupts HCMV UL50-UL53 complex binding; HTRF UL50-UL53 interaction, normalized percent inhibition; inhibition, % (test concentration not listed); 0.15% of 190,000 active;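 active = both replicates at 50% or more, plus weaker picks with an unusually low signal ratio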;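 note: stock transfer was 100 nL into about 20 µL; 0% = negative control wells and 100% = wells with untagged competitor protein; inactives centre near -12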
# GIV-Gai inh: inhibitors of GIV GBA-motif binding to rat Galpha-i3 | Galpha-i3/FITC-GIV peptide fluorescence polarization, 90 min; stronger effect = lower value; scaled: aluminum fluoride 0%, vehicle 100% | percent of control (FP), % (test concentration not listed) | P08753 | AID 1224905 | 0.42% of 210,000 active;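 active = replicate mean at 85% of control or lower, very high polarization wells dropped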;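 note: wells of about 15 µL received 100 nL stock; the first replicate is given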
# Target sequence (P08753 whole entry, looked up): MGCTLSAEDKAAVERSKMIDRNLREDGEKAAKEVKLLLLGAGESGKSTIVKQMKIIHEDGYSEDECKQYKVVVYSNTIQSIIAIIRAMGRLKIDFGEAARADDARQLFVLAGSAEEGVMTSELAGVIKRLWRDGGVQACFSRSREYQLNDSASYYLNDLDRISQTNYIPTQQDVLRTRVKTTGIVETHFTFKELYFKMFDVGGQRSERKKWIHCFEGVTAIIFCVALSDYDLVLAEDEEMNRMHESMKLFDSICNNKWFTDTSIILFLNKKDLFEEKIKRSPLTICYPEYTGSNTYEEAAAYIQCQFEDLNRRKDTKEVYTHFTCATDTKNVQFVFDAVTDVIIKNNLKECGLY
# Sa growth 42C second temp: also measured in Sa growth 42C; calls as there; relative growth, %; measured here: growth at 30 °C;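 optical density after 20 h as mean of two plates; 100% = untreated growth and lower means inhibition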
# * = called active by the depositor; / = not tested or not shown; & = joins results of further samples.
SMILES,Sa growth 42C,Sa growth 42C second temp,HCMV NEC inh,GIV-Gai inh
Cn1cnc(S(=O)(=O)N2CCC(C(=O)NC3CCCCC3)CC2)c1,/,/,-31,108
Cc1ccc(N2C3=C(C(=O)CC(C)(C)C3)C(c3cccs3)C3=C2CC(C)(C)CC3=O)cc1C,112,87,/,100
Cc1cccnc1N/C=C1/CCCCC1=O,109,92,-19,/
O=C(NCc1cccnc1)C1CCN(c2nnc(-n3cccc3)s2)CC1,91,89,-8,103
O=C(OCC(=O)N(Cc1ccccc1)Cc1ccccc1)c1ccc2ccccc2n1,106,88,-45,/
CCC(=O)Nc1ccc(N2CCn3c(nc4ccccc43)C2)cc1,/,/,-15,104
CCc1cccc2c(C#N)cn(CCOc3ccccc3OC)c12,107,71,-12,103
O=C(CNC(=O)c1ccc(-c2noc(C3CCCC3)n2)cc1)Nc1ccc2c(c1)OCCO2,/,/,-5,110
CC1CCN(C(=O)CSc2nnc(Cc3ccccc3)o2)c2ccccc2S1 (stereo unspecified),78,90,-40,/
CC(C)COC(=O)OCN1C(=O)CN(CCN2CC(=O)N(COC(=O)OCC(C)C)C(=O)C2)CC1=O,/,/,-27,101
O=C(NCc1ccccc1)c1ccc2nc3c(cc2c1)CCS3,84,77,7,105
COc1ccc(CN2CCN(c3ccccn3)CC2)cc1OCc1ccccc1,102,102,-8,102
CCCN(CCC)C(=O)c1ccc2c(c1)N(Cc1ccccc1F)C(=O)c1ccccc1S2(=O)=O,110,82,/,98
O=c1cc(CCl)c2ccc(O)cc2o1,18,37,-8,/
Cc1ccc(N2CCN(S(=O)(=O)c3c(C)[nH]c(=O)[nH]c3=O)CC2C)cc1 (stereo unspecified),130,86,/,103
COc1cc(NC(=O)CCC2CCCC2)c(C(=O)O)cc1OC,96,88,-2,/
O=C(NC1=NCCS1)c1ccc(S(=O)(=O)N2CCc3ccccc3C2)cc1,94,97,-13,/
COc1ccc(/C=C2\Oc3cc(OCc4cccc(C)c4)ccc3C2=O)cc1,98,79,/,100
COc1ccc(NC(=O)COC(=O)c2cc(-c3ccc(C)o3)nc3ccccc23)cc1,96,79,-14,/
Cc1ccc(Cn2c(=O)n(CCCCC(=O)NCc3ccccc3Cl)c(=O)c3ccccc32)cc1,99,87,-16,104
CCC(CC)(CN(C)C)OC(=O)c1ccccc1,108,85,-2,/
O=C(c1ccc2c(c1)OCCO2)N1CCCCC1,/,/,-19,109
CCCCN(C)Cc1c(O)ccc2c(=O)c(Oc3cc(C)cc(C)c3)coc12,85,84,-27,98
O=C(CSc1nc(-c2ccccc2)nc2c1CCCC2)c1ccc(Cl)cc1,109,92,-4,106
CCOc1ncnc2c1nnn2Cc1ccccc1Cl,108,101,52,107
CCOC(=O)C1=C(C)N=c2s/c(=C\c3ccc(O)c(OC)c3)c(=O)n2C1c1ccc(OCC)c(OCC)c1 (stereo unspecified),/,/,-20,144
Cc1c(C(=O)O)cc(C(C)(C)C)n1-c1ccccc1,116,94,2,110
CC1=C(C(=O)c2ccccc2)CNC(=S)N1,86,81,-35,/
Cc1ccccc1-c1noc(-c2cccnc2N2CCN(c3ccccc3)CC2)n1,94,86,8,106
CCOc1ccc(OCC)c(NC(=O)c2cc(CN3CCOCC3)on2)c1,83,87,/,103
O=C1OC2(c3ccc(O)cc3Oc3cc(O)ccc32)c2ccccc21,97,91,-97,/
COc1cccc(CNC(=O)CSc2n[nH]c(-c3ccccc3Cl)n2)c1,100,87,/,105
CC(C)(C)NS(=O)(=O)c1ccc(F)cc1,100,87,-6,/
COc1cc([N+](=O)[O-])cc2sc(NC(=O)c3ccccc3NS(=O)(=O)c3ccc(C)cc3)nc12,/,/,-10,101
Cc1ccc2nc(C3=C(O)CN(CC(C)C)C3=N)[nH]c2c1,103,92,-7,105
CCOC(=O)c1ccc(Nc2nc3nonc3nc2N(CC)CC)cc1,/,/,-13,109
O=C1CSC(c2ccccc2C(F)(F)F)N1c1ccc(Br)cc1 (stereo unspecified),/,/,-7,106
CCOC(=O)c1c(C)[nH]c(C)c1S(=O)(=O)N1CCCC(C(=O)Nc2cccc(C)n2)C1 (stereo unspecified),99,98,-11,110&103
O=C(c1cccs1)c1cnc2ccccn2c1=O,93,91,-75,111
O=C(CSc1ccccc1C(=O)O)c1ccc(Cl)cc1,87,84,-32,104
COC(=O)c1cc(C#N)c(C)nc1Sc1nccn1-c1cc(Cl)ccc1Cl,111,86,-13,103
CCOc1ccc(NC(=O)C2CCC(CNS(=O)(=O)c3ccc4c(c3)CCCC(=O)N4)CC2)cc1 (stereo unspecified),85,85,/,95
CCCOc1cccc(NC(=O)c2c(-c3ccccc3Cl)noc2C)c1,81,84,-21,105
CCOc1ccc(CC(=O)Nc2ccc(C/C(N)=N/O)cc2)cc1OCC,84,85,-29,103
CCOC(=O)Cc1ccc(NC(=O)Nc2c[nH]c(=O)[nH]c2=O)cc1,96,86,-26&-7,100&96
CCOc1ccccc1C(=O)Nc1ccc(S(=O)(=O)N2CCCCC2c2cccnc2)cc1 (stereo unspecified),104,96,/,108
COc1ccc(-c2nc3nc(C)cc(Nc4ccc(C(C)=O)cc4)n3n2)cc1,94,86,-26,102
Cc1[nH]c(C(=O)N2CCN(c3ccc(Cl)cc3)CC2)c(C)c1S(=O)(=O)N1CCC(C)CC1,/,/,-20,111
Cc1ccc(-c2cc(NC(=O)c3oc4cc(C)c(C)cc4c3C)on2)cc1,/,/,-27,102
CCN(Cc1nc(-c2cccc(Br)c2)no1)C(C)C(=O)Nc1ccc(C)cc1 (stereo unspecified),104,90,2,/
COc1ccc(CNC(=O)Cc2nc(-c3ccc(OC)cc3)no2)cc1,97,87,-26,100
CCOc1ccc(C(=O)c2cccs2)cc1,92,99,-9,99
CCN(CC)C(=O)Cc1cn(C)c2ccccc12,94,85,0,95
CCOC(=O)N1CCN(C(=O)CSc2nnc(Cc3cccn3C)n2-c2ccc(C)cc2)CC1,106,90,-3,103
CC1CCCC(C)N1C(=O)COc1ccc(-c2nnco2)cc1 (stereo unspecified),104,97,12,/
CCN1CCN(C(=O)c2cnn(-c3ccc(F)cc3F)c2C2CCN(C(=O)OC(C)(C)C)CC2)CC1,95,92,/,103
CC(C)CC(=O)Nc1ccc2nc(SCC(=O)N3CCOCC3)sc2c1,89,92,-3&-16,109&103
COCCNCc1ccc(-c2cccc(Cl)c2)o1,/,/,-26,103
CN(Cc1ccccc1)C(=O)c1cc2c(s1)-c1ccccc1S(=O)(=O)C2,89,86,/,105
COc1cc2c(cc1OC)C(C)N(C(=O)c1nn(-c3ccccc3)nc1C)CC2 (stereo unspecified),99,73,-25,107

# Later entries:
SMILES,Sa growth 42C,Sa growth 42C second temp,HCMV NEC inh,GIV-Gai inh
Cn1c(C(C#N)c2nc(C#N)c(C#N)nc2Cl)nc2ccccc21 (stereo unspecified),90,81,-39,/
CCN(CC)C(=O)c1oc2ccc(S(=O)(=O)N3CCCC3)cc2c1C,96,77,/,103
Cc1cccc(N2CCN(C(=O)c3cnn(-c4cccc(Cl)c4C)c3C3CCNCC3)CC2)c1C,98,82,/,95
COc1ccc(C2=CC(=O)N(c3ccccc3)C(c3ccccc3)O2)cc1 (stereo unspecified),92,89,/,90
COc1ccc2occ(C(O)c3ccccc3)c2c1 (stereo unspecified),114,107,-5,111
Cc1c2cnn(CC(=O)N3CCN(c4ccc(F)cc4)CC3)c(=O)c2c(C)n1Cc1ccccc1F,113,90,1,106
CCC(C)c1ccc(OCC(=O)Nc2cccc(-c3nc4ncccc4o3)c2)cc1 (stereo unspecified),85,86,-35,98
Cc1ccc2nc(-c3ccccc3)cn2c1,103,74,/,98
Cc1[nH]c2ccccc2c1C(=O)C(C)Sc1nnc(-c2ccccc2)o1 (stereo unspecified),110,94,-12,/
O=C(Nc1ccc(F)cc1F)c1ccc2c(O)c(S(=O)(=O)c3ccc(Cl)cc3)c(=O)[nH]c2c1,91,88,/,101
O=C(Cc1ccc(NC(=O)N2CCSc3ncccc32)cc1)Nc1ccc(Cl)cc1F,/,/,-22,107
CN(C)c1cccc(C(=O)NCC(c2cccs2)N(C)C)c1 (stereo unspecified),93,88,-27,/
CC(=O)Nc1ccc(C(=O)OCC(=O)Nc2cc(Cl)cc(Cl)c2)cc1,86,101,12,/
O=C1CCCC(O)=C1C=Nc1ccc(Br)cc1,109,106,2,103
O=C(Cn1cnc2ccccc2c1=O)OCC(=O)c1ccc2c(c1)OCO2,93,90,-11,/
CC1CCCN(C(=O)COC(=O)c2ccc(Br)cc2)C1 (stereo unspecified),108,87,-31,/
CCCCN(CC)C(=O)c1n[nH]c(=O)c2ccccc12,85,87,-16,104
Cc1ccc(NC(=O)c2cccnc2)cc1C,104,92,-4,/
CCC(=O)N1c2ccccc2CC1C(=O)NCCc1ccccc1 (stereo unspecified),91,90,/,98
CCCN(C(=O)C1CCCN1S(=O)(=O)c1cccc2nsnc12)c1ccc(C(C)C)cc1 (stereo unspecified),92,81,/,101
O=C(O)c1ccc(C2SCC(=O)N2CCc2ccccc2)cc1 (stereo unspecified),112,100,1,103
COc1ccc(-n2c(=O)c3c4c(sc3n(Cc3cc(=O)n5c(C)cccc5n3)c2=O)CCC4)c(OC)c1,97,70,-31,110
O=C(NCCSc1c(-c2ccc(Cl)cc2)[nH]c2ccccc12)c1ccc(S(=O)(=O)N2CCOCC2)cc1,105,89,-11,105
O=C(c1cccc(Cl)c1)N1N=C(c2ccc(Cl)cc2)CC1(O)C(F)(F)F (stereo unspecified),/,/,-22,101
Cn1ccnc1C(=O)c1ccccc1Cl,88,88,0,/
O=C(NCc1ccco1)c1cc(Cl)cc(Cl)c1,117,87,-26,/
CCOC(=O)C1=C(C)N=c2s/c(=C3\C(=O)N(C)c4ccccc43)c(=O)n2C1c1ccc(OC)cc1 (stereo unspecified),/,/,-15,90
COc1ccc(C2C(C#N)=C(N)Oc3c2ccc2cccnc32)cc1 (stereo unspecified),85,68,-16,113
CN(C)C(=O)C1CNc2ccccc2O1 (stereo unspecified),/,/,-28,104
CS(=O)(=O)c1ccc2nc(NC(=O)c3ccccc3)sc2c1,97,73,-9,105
CC(C)C(=O)N1c2ncnn2C2(CCCCC2)[C@@H]2CCCC[C@@H]21,106,95,-2,98
Cc1cccc(NC(=O)Cn2cc(S(=O)(=O)Cc3ccccc3Cl)c3ccccc32)c1,119,91,/,105
CCC(Sc1nnc(C)c(=O)[nH]1)C(=O)Nc1ccccc1C#N (stereo unspecified),128,95,3,/
Fc1ccccc1-c1noc(N2CCOCC2)n1,/,/,3,98
CN(C)c1ccc(C(CNC(=O)Cc2ccc(F)cc2)N2CCCC2)cc1 (stereo unspecified),/,/,-22,103
Cc1ccc(-c2nc3n(n2)C(=O)CC(c2ccc(Cl)cc2)S3)cc1 (stereo unspecified),95,95,-5,105

# Reformatted tab-delimited: 16 of the compounds above.
SMILES	Sa growth 42C	Sa growth 42C second temp	HCMV NEC inh	GIV-Gai inh
Cc1ccc(NC(=O)c2cccnc2)cc1C	104	92	-4	/
CCC(=O)N1c2ccccc2CC1C(=O)NCCc1ccccc1 (stereo unspecified)	91	90	/	98
CCCN(C(=O)C1CCCN1S(=O)(=O)c1cccc2nsnc12)c1ccc(C(C)C)cc1 (stereo unspecified)	92	81	/	101
O=C(O)c1ccc(C2SCC(=O)N2CCc2ccccc2)cc1 (stereo unspecified)	112	100	1	103
COc1ccc(-n2c(=O)c3c4c(sc3n(Cc3cc(=O)n5c(C)cccc5n3)c2=O)CCC4)c(OC)c1	97	70	-31	110
O=C(NCCSc1c(-c2ccc(Cl)cc2)[nH]c2ccccc12)c1ccc(S(=O)(=O)N2CCOCC2)cc1	105	89	-11	105
O=C(c1cccc(Cl)c1)N1N=C(c2ccc(Cl)cc2)CC1(O)C(F)(F)F (stereo unspecified)	/	/	-22	101
Cn1ccnc1C(=O)c1ccccc1Cl	88	88	0	/
O=C(NCc1ccco1)c1cc(Cl)cc(Cl)c1	117	87	-26	/
CCOC(=O)C1=C(C)N=c2s/c(=C3\C(=O)N(C)c4ccccc43)c(=O)n2C1c1ccc(OC)cc1 (stereo unspecified)	/	/	-15	90
COc1ccc(C2C(C#N)=C(N)Oc3c2ccc2cccnc32)cc1 (stereo unspecified)	85	68	-16	113
CN(C)C(=O)C1CNc2ccccc2O1 (stereo unspecified)	/	/	-28	104
CS(=O)(=O)c1ccc2nc(NC(=O)c3ccccc3)sc2c1	97	73	-9	105
CC(C)C(=O)N1c2ncnn2C2(CCCCC2)[C@@H]2CCCC[C@@H]21	106	95	-2	98
Cc1cccc(NC(=O)Cn2cc(S(=O)(=O)Cc3ccccc3Cl)c3ccccc32)c1	119	91	/	105
CCC(Sc1nnc(C)c(=O)[nH]1)C(=O)Nc1ccccc1C#N (stereo unspecified)	128	95	3	/

# Additional entries follow.
SMILES,Sa growth 42C,Sa growth 42C second temp,HCMV NEC inh,GIV-Gai inh
C=Cn1c(C(=O)O)ccc1-c1ccc(C)cc1,148,116,-2,/
CCOC(=O)c1c(C)[nH]c(C)c1C(=O)Cn1nnc2ccccc2c1=O,96,85,-76,/
S=C(NCC(c1cccnc1)N1CCOCC1)NC1CCCCC1 (stereo unspecified),93,90,-34,102
Clc1cccc(N2CCN(c3ncnc4c3nc3n4CCCCC3)CC2)c1,105,85,-11,105
c1coc(CNC2CCCC2)c1,100,93,-15,103
CC(=O)Oc1ccc2oc(-c3ccccc3)c(C(=O)O)c2c1,139,105,-7,/
O=C1NC(=S)N(c2ccccc2)C(=O)/C1=C\c1ccoc1,69,42,28,247
Cc1nc2cc3c(cc2[nH]1)OCCO3,102,92,-5&9,100
COc1ccc(Cc2nc(-c3ccc(Br)cc3)no2)cc1,92,106,8,/

# Screens: PubChem BioAssay, ICCB-Longwood Screening Facility, Harvard Medical School
